Screens as filed in PubChem BioAssay.
HCMV NEC inh: cytomegalovirus nuclear egress complex inhibition. HTRF UL50-UL53 interaction, normalized percent inhibition. inhibition, % (test concentration not listed). AID 1918969. actives 0.15% (n = 190,000);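 active means both replicates at 50% or more, plus weaker picks with an unusually low signal ratio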;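 further: stock transfer was 100 nL into about 20 µL; 0% = negative control wells and 100% = wells with untagged competitor protein; inactives centre near -12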
GIV Gai3 FP: GIV-Galpha-i interaction inhibition; Galpha-i3/FITC-GIV peptide fluorescence polarization, 90 min; hits give low values; scaled: aluminum fluoride 0%, vehicle 100%; AID 1224905; percent of control (FP), % (no concentration beside the values); P08753; actives 0.42% (n = 210,000);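 active means replicate mean at 85% of control or lower, very high polarization wells dropped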;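 further: wells of about 15 µL received 100 nL stock; the first replicate is given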
Target sequence (P08753 whole entry, looked up): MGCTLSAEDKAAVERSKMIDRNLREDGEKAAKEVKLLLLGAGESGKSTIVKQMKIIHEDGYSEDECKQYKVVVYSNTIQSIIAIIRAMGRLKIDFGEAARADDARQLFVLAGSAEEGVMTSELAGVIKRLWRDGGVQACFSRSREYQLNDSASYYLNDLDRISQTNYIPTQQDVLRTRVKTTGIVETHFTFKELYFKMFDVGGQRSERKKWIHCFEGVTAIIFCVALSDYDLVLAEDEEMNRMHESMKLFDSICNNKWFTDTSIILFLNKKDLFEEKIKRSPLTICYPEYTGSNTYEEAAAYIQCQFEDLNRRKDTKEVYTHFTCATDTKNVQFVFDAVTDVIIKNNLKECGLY
Sa growth inh: S. aureus growth inhibition; S. aureus RN4220 growth, OD600, 20 h, 42 °C; hits give low values; relative growth, % (no concentration beside the values); actives 0.53% (n = 170,000); AID 720641;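 active means growth at 42 °C up to 50% and 20 or more points under that at 30 °C, or under 10% at both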;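 further: 300 nL library stock went into each well; scaled to the means of positive and negative controls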
Sa growth inh second temp: recorded beside Sa growth inh, whose call it bears; relative growth, %; measured here: growth at 30 °C;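 optical density after 20 h as mean of two plates; 100% = untreated growth and lower means inhibition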
* = called active by the depositor; . = not tested or not shown.

Short forms – A = HCMV NEC inh; B = GIV Gai3 FP; C = Sa growth inh; D = Sa growth inh second temp
> CCN(CC)c1ccc(C2C(C(=O)Nc3ccccc3C)=C(C)Nc3ncnn32)cc1 (stereo unspecified)
  A: . | B: 112 | C: 116 | D: 105

> CCCNC(=O)Cn1cc2c(n1)CCCCC2
  A: . | B: 104 | C: 90 | D: 87

> O=C(O)CCCC(=O)Nc1cccc(F)c1C(=O)O
  A: -21 | B: 98 | C: 88 | D: 85

> CCNC(=S)N/N=C/c1ccc(OCC(=O)N2CC(C)OC(C)C2)c(OC)c1 (stereo unspecified)
  A: -13 | B: . | C: 97 | D: 87

> COCCNC(=O)Cn1cnc2sc(C)c(S(=O)(=O)N3CCN(c4ccccc4OC)CC3)c2c1=O
  A: 11 | B: 105 | C: 98 | D: 102

> CCOc1ccccc1NC(=O)CSc1nc2c(oc3ccccc32)c(=O)n1Cc1ccco1
  A: 4 | B: 98 | C: 92 | D: 84

> COc1cc2[nH]c(=O)n(Cc3ccc(C(=O)Nc4ccccc4)cc3)c(=O)c2cc1OC
  A: 0 | B: 105 | C: . | D: .

> CN(c1nc2ccccc2[nH]c1=O)C1CCCCC1
  A: -7 | B: . | C: 83 | D: 93

> CCOc1ccc(C(N)=O)cc1OC
  A: 6 | B: . | C: 76 | D: 94

> COc1cc(-c2nc3ccccc3c(=O)n2NCc2ccc(OC(F)F)cc2)cc(OC)c1OC
  A: 3 | B: 107 | C: . | D: .

> COCCNC(=S)Nc1nc(OC)cc(OC)n1
  A: -4 | B: 109 | C: 116 | D: 94

> c1cncc(-c2nc3ccccn3c2Nc2ccc3c(c2)OCCO3)c1
  A: -19 | B: 102 | C: 90 | D: 66

> Cc1ccc(-n2ncc3c(N4CCC(C(N)=O)CC4)ncnc32)cc1
  A: . | B: 102 | C: 112 | D: 87

> CCN(C(=O)COc1ccc(C)cc1C)C1CCS(=O)(=O)C1 (stereo unspecified)
  A: -3 | B: . | C: 103 | D: 88

> CCOC(=O)c1c(C)[nH]c(C)c1S(=O)(=O)N1CCC(C(=O)Nc2cc(Cl)ccc2C)CC1
  A: -19 | B: 101 | C: . | D: .

> N#CC1=C(N)C(C#N)(C#N)C(c2ccc(OC(F)F)cc2)C=C1C1CC1 (stereo unspecified)
  A: -11 | B: . | C: 99 | D: 93

> CN(C)c1ccc2c3c(cccc13)C(=O)N(c1ccccc1)C2=O
  A: -23 | B: 101 | C: 83 | D: 77

> Cc1c(C(=O)O)oc2c1-c1[nH]ncc1CC2
  A: 61* | B: 98 | C: 100 | D: 85

> COc1ccc(/C(O)=C/c2nc3ccc(C(=O)N4CCOCC4)cc3[nH]c2=O)cc1OC
  A: . | B: 166 | C: 70 | D: 84

> CCS(=O)(=O)N1CCN(c2cc(Nc3ccc(C)cc3)nc(C)n2)CC1
  A: -8 | B: 106 | C: . | D: .

> Fc1cccc(Cl)c1CN1CCN(CCCNc2nc(-c3ccccc3)ns2)CC1
  A: . | B: 105 | C: 117 | D: 89

> Cc1ccc(CC2SC(=O)NC2=O)cc1Cl (stereo unspecified)
  A: -1 | B: . | C: 107 | D: 101

> COc1cc(C(=O)NCC(c2ccccc2)c2c[nH]c3ccccc23)cc(OC)c1OC (stereo unspecified)
  A: -17 | B: 100 | C: 121 | D: 93

> N#CCSc1nc2scc(-c3cccs3)c2c(=O)n1CCc1ccccc1
  A: -11 | B: . | C: 83 | D: 99

> COc1cc(OC)c(CNc2ccc3cn[nH]c3c2)cc1Br
  A: -8 | B: 111 | C: 87 | D: 71

Short forms – A = HCMV NEC inh; B = GIV Gai3 FP; C = Sa growth inh; D = Sa growth inh second temp
> Cc1cccc(Cn2c(SCc3ccc(C(=O)NCCN4CCOCC4)cc3)nc3ccncc32)c1
  A: -30 | B: 104 | C: . | D: .

> Cc1nc2ccn(Cc3ccccc3)c(=O)c2cc1C(=O)N1CCN(c2ccccc2F)CC1
  A: . | B: 101 | C: 109 | D: 92

> CC(=O)NC(Cc1cnc[nH]1)C(=O)O (stereo unspecified)
  A: -10 | B: 100 | C: 75 | D: 105

> O=C(O)CN(CCOCCOCCN(CC(=O)O)CC(=O)O)CC(=O)O
  A: -27 | B: 106 | C: . | D: .

> COc1ccc(N=C2SCCCN2C(=O)C2CCCC2)cc1OC
  A: -6 | B: . | C: 94 | D: 86

> Cc1ccc(NC(=O)C2CCN(S(=O)(=O)c3cccc4nonc34)CC2)c(Cl)c1
  A: -13 | B: 102 | C: 96 | D: 91

> Fc1ccc(NCc2cn(-c3ccccc3)nc2-c2cccs2)c(F)c1
  A: . | B: 108 | C: 74 | D: 74

> Nc1nc2nc3ccccc3n2c(=O)[nH]1
  A: -28 | B: . | C: 96 | D: 92

> CCCOc1ccc(C2(C(=O)O)CCCC2)cc1
  A: . | B: 97 | C: 137 | D: 98

> CCN(C(=O)Cc1noc2ccccc12)c1cc(OC)ccc1OC
  A: . | B: 100 | C: 113 | D: 90

> COc1ccc(/C=C/C(=O)N2CCC(c3nc4ccccc4o3)CC2)cc1
  A: -46 | B: 104 | C: 92 | D: 90

> CC(=O)N1CCc2cc(C(O)CN3CCN(c4ccccn4)CC3)ccc21 (stereo unspecified)
  A: 5 | B: 107 | C: 101 | D: 95

> CC(=O)N1CCc2cc(S(=O)(=O)NC(Cc3ccccc3)C(=O)Nc3cc(C)cc(C)c3)ccc21 (stereo unspecified)
  A: -25 | B: 104 | C: 98 | D: 93

> COC(=O)c1c(-c2c(Cl)cccc2Cl)noc1NC(=O)NCc1ccccc1
  A: 4 | B: 100 | C: 114 | D: 92

> Cc1ccc(NCn2nnc3ccccc32)cc1
  A: -16 | B: . | C: 111 | D: 87

> Cc1cccc(OCC(=O)O)c1C
  A: -21 | B: . | C: 107 | D: 83

> Cn1nc(OC(C)(C)C(=O)O)cc1C(F)(F)F
  A: 6 | B: 105 | C: 101 | D: 101

> COc1ccc(NC(=O)CSc2nncn3c2cc2occc23)cc1
  A: -46 | B: 124 | C: 84 | D: 83

> CC1CCc2onc(C(=O)N3CCN(c4ccc(F)cc4)CC3)c2C1 (stereo unspecified)
  A: . | B: 100 | C: 92 | D: 91

> COc1ccc(C(CNC(=O)COc2ccc(C)c(C)c2)N2CCCCC2)cc1 (stereo unspecified)
  A: -34 | B: 98 | C: 103 | D: 83

> COc1ccc(CCNC(=O)CCCn2c(=O)c3ccccc3n(CC(=O)Nc3ccc(C)cc3Cl)c2=O)cc1OC
  A: -9 | B: 107 | C: 94 | D: 100

> CCOC(=O)c1c(CSc2ccccc2)n(C)c2ccc(O)cc12
  A: -15 | B: 100 | C: . | D: .

> CCOC(=O)c1cc(S(=O)(=O)NCc2ccc(Cl)cc2)[nH]n1
  A: . | B: 99 | C: 86 | D: 87

> O/C(=C\SC1=NCCN1)C12CC3CC(CC(C3)C1)C2
  A: -11 | B: . | C: 119 | D: 87

> C=CCNc1oc(-c2ccccc2)nc1S(=O)(=O)c1ccc(Cl)cc1
  A: -12 | B: 102 | C: . | D: .

Short forms – A = HCMV NEC inh; B = GIV Gai3 FP; C = Sa growth inh; D = Sa growth inh second temp
> CCOC(=O)c1[nH]c2ccccc2c1NC(=S)Nc1cccc(C)c1C
  A: . | B: 103 | C: 88 | D: 69

> CCc1ccc(NS(=O)(=O)c2ccc3[nH]cc(C(=O)NC)c(=O)c3c2)cc1
  A: . | B: 100 | C: 112 | D: 69

> CC(NC(N)=S)c1ccccc1 (stereo unspecified)
  A: -27 | B: . | C: 109 | D: 91

> Cc1ccc(NC(=O)Cn2ncn3c(cc4ccccc43)c2=O)cc1F
  A: -26 | B: 108 | C: 105 | D: 84

> CCN1C(=O)/C(=C/c2ccccc2NC(C)=O)OC1=S
  A: -36 | B: 116 | C: 107 | D: 105

> O=C(CSc1ncnc2nc(N3CCCC3)sc12)Nc1ccc2c(c1)OCCO2
  A: -4 | B: 104 | C: . | D: .

> CC(NC(=O)COc1ccc(C#N)cc1)C12CC3CC(CC(C3)C1)C2 (stereo unspecified)
  A: -30 | B: . | C: 103 | D: 85

> CCN(CC)S(=O)(=O)c1ccc(F)cc1
  A: -17 | B: . | C: 95 | D: 89

> Cc1occc1C(=O)Nc1ccc(S(=O)(=O)N(C)C)cc1
  A: -36 | B: 135 | C: 119 | D: 87

> CC1(C)CC(CCO)CC(C)(C)N1
  A: -20 | B: 104 | C: 97 | D: 91

> CC(CCc1ccco1)NC(=O)Nc1cn(C)c(=O)c2ccccc12 (stereo unspecified)
  A: 16 | B: 98 | C: 98 | D: 80

> CN(C(=O)CSc1ccc2c(c1)OCCO2)c1c(N)n(Cc2ccccc2)c(=O)[nH]c1=O
  A: -20 | B: . | C: 91 | D: 75

> CCOC(=O)N1CCN(C(=O)Cn2cnc3c(nnn3Cc3ccc(C)cc3)c2=O)CC1
  A: -3 | B: 105 | C: 111 | D: 79

> CCC(CC)NC(=O)c1cc(Cl)ccc1Cl
  A: 0 | B: 100 | C: 113 | D: 89

> Cc1cc(C(F)(F)F)nc(NC(C)c2ccccc2)n1 (stereo unspecified)
  A: -8 | B: 98 | C: 104 | D: 92

> Cc1cc(CNC(=O)NCC(C)C)c(C)n1-c1ccc(Cl)cc1
  A: 6 | B: 121 | C: . | D: .

> CN(C)C(=O)c1ccc2c(c1)N(CC(=O)NCCC1=CCCCC1)C(=O)CO2
  A: -17 | B: 98 | C: . | D: .

> c1ccc(-c2csc(N3CCC(c4ccccc4)C3)n2)cc1 (stereo unspecified)
  A: -23 | B: . | C: 97 | D: 91

> CCOc1ccc2oc(C)c(C(=O)Nc3ccccc3OCC)c2c1
  A: 10 | B: 113 | C: . | D: .

> c1ccc(-n2nnnc2NCC(c2ccco2)N2CCCCC2)cc1 (stereo unspecified)
  A: 15 | B: . | C: 117 | D: 100

> CCN1CCN(C(=O)c2ccc3c(c2)N(Cc2cccc(F)c2)C(=O)c2ccccc2S3)CC1
  A: . | B: 108 | C: 126 | D: 85

> CNC(=O)c1sc(-c2ccccc2)nc1C
  A: -36 | B: 105 | C: . | D: .

> CCn1c(SCc2csc(CC(=O)Nc3ccc(C)cc3)n2)nnc1-c1ccco1
  A: -4 | B: . | C: 83 | D: 81

> CCc1ccc(-n2ncc(-c3cc(C(=O)NCC4CCCO4)c4ccccc4n3)c2C)cc1 (stereo unspecified)
  A: -41 | B: 105 | C: . | D: .

> O=C(O)C1(NCc2ccc(F)cc2)CCCCC1
  A: -8 | B: 99 | C: 86 | D: 89

Short forms – A = HCMV NEC inh; B = GIV Gai3 FP; C = Sa growth inh; D = Sa growth inh second temp
> Cc1ccc(NC(=O)C(c2ccccc2)N2CCc3ccccc32)cc1 (stereo unspecified)
  A: . | B: 102 | C: 95 | D: 90

> CC(=O)Nc1ccccc1NC(=O)c1cccs1
  A: 10 | B: . | C: 108 | D: 100

> Cc1ccccc1Cn1c(=O)n(Cc2ccco2)c(=O)c2oc3ccccc3c21
  A: . | B: 97 | C: 84 | D: 90

> Cc1ccc(N(Cc2nc3nc(C)cc(C)n3n2)S(=O)(=O)c2ccc(C)cc2)cc1
  A: -27 | B: 104 | C: . | D: .
